Arbovirus anti = antivirals against arbovirus infection; arbovirus infection cell-based antiviral screen; inhibition, % at 10 µM; hit rate 0.37% among 200,000; AID 1251;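 active = inhibition from about 30%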;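 also: bluetongue infection of BSR cells; cell survival read as ATP light after 72 h; 0% = infected wells without compound and 100% = uninfected wells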
YopH PTP inh = blocks Yersinia enterocolitica YopH tyrosine phosphatase | fluorescence Ex485/Em525 | inhibition, %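 (about 10 µM by stock and volumes)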 | hit rate 0.16% among 140,000 | AID 898;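 active = inhibition of 50% or more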;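 also: controls were vehicle for no effect and minimum signal wells for full effect; inactives centre near -20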
Mtb bLac sens = beta-lactam sensitization of Mtb H37Rv; inhibition, % at 25 µM; M. tuberculosis H37Rv growth with meropenem, percent inhibition; hits of this screen are not shown here; hit rate 0.27% among 330,000; AID 434955;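 active = about 74% or more and at least 40 points above the plate without the antibiotic, then above 30% in a dose series; inconclusive = first-round hits that could not be retested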;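 also: growth measured after seven days incubation then overnight dye step; 0% = bacteria only wells and 100% = bacteria with antibiotic; twin plates without the antibiotic show which effects depend on it; some results filed as inactive read as strong as hits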
RecA splice inh = inhibitors of M. tuberculosis RecA intein splicing. cell-free RecA intein splicing, fluorescence. P9WHJ3. inhibition, %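 (about 9 µM by stock and volumes)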. hit rate 0.75% among 290,000; in the data active = inhibition above about 30%; inconclusive = no clear call, values can overlap the other calls;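 also: 0% = vehicle wells and 100% = reference inhibitor control wells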
Target sequence (P9WHJ3 whole entry, looked up, canonical isoform): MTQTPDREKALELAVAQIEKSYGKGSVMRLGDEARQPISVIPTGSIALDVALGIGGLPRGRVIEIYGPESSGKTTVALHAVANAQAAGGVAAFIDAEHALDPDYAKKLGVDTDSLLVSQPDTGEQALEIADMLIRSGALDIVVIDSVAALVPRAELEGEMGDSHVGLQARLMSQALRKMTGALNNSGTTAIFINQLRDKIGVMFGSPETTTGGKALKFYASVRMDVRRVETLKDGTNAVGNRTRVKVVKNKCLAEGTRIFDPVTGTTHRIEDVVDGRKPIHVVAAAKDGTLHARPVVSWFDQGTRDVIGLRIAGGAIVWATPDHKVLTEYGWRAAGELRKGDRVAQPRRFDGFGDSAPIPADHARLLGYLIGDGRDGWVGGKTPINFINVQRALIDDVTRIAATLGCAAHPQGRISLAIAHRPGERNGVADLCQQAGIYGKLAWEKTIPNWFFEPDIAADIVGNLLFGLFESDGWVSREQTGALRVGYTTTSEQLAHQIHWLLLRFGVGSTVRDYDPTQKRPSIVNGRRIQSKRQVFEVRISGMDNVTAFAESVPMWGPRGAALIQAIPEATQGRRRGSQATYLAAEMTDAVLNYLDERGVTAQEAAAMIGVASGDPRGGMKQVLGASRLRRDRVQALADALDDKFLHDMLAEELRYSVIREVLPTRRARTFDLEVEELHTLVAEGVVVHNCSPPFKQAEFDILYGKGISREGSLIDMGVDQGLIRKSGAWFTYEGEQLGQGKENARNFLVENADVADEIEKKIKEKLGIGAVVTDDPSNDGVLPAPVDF
Mtb H37Rv = M. tuberculosis H37Rv growth inhibitors, H37Rv strain (AID 1626) | M. tuberculosis H37Rv growth inhibition; higher % means a stronger effect | one-dose inhibition, % at 10 µM; IC50 in µM for titrated hits | hit rate 0.95% among 220,000;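 active = confirmed in a dose series; inconclusive = inhibition above 80% but not taken into the dose series; inactive = below 80% or under 30% at every dose of the series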;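 also: bacteria incubated seven days before Alamar blue readout; 0% = bacteria only wells and 100% = bacteria with antibiotic wells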
Arbovirus anti repeat = further read-out of Arbovirus anti, marked with its call; inhibition, %; measured here: 10K subset replicate screen; many hits read low in the repeat;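 first of two repeat runs on a subset; 0% = infected and 100% = uninfected wells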
An asterisk follows results filed as active; ? = inconclusive; / = not tested or not shown. This is a subset, so the mix of outcomes need not match the whole.

SMILES | Arbovirus anti | YopH PTP inh | Mtb bLac sens | RecA splice inh | Mtb H37Rv | others
CC(=O)C1=C(S(=O)(=O)c2ccc(C)cc2)CS(=O)(=O)C1 | 2 | / | / | 0.7 | -7%
Cc1cccc(C(=O)N2CCCC(Nc3ccc(F)c(F)c3)C2)n1 (stereo unspecified) | / | / | -1 | -2.9 | /
COc1cccc(C(=O)Nc2cc(C)c3c(=O)oc4ccccc4c3n2)c1 | -6 | / | 4 | 1.3 | -1% | Arbovirus anti repeat=-5
CCOc1ccccc1N1CCN(C(=O)CN2C(=O)NC3(CCCC3)C2=O)CC1 | / | / | -3 | 0.2 | /
O=C(CSc1nc(-c2ccccc2)nc2ccccc12)Nc1cccc(C(=O)O)c1 | 10 | / | -7 | 2.4 | 0%
Cc1ccccc1NC(=O)c1ccc(F)c(S(=O)(=O)N2CCN(c3ccccn3)CC2)c1 | 17 | -40 | -8 | -2.6 | -12%
Cn1ccnc1SCC(=O)c1cccc(Br)c1 | -2 | -9 | -2 | 2.6 | -2%
CC(=O)COc1ccc2c3c(c(=O)oc2c1)CCCC3 | -6 | -42 | 48 | 4.2 | 0%
CC(NC(=O)CSc1nc2ccc(N)cc2s1)c1ccccc1 (stereo unspecified) | -22 | / | -2 | 0.4 | 1%
O=C(NC(C(=O)O)c1ccccc1)c1ccccc1 (stereo unspecified) | 5 | -3 | 1 | 1.0 | 3%
CS(=O)(=O)N1CCN(c2c(Cl)cccc2[N+](=O)[O-])CC1 | 1 | -20 | -10 | -0.3 | -8%
CC(C)COC(=O)Nc1nnc(Cc2ccccc2)s1 | -19 | / | -3 | 0.2 | 12%
C/C(O)=C(/C=NCC(=O)O)C(=O)Nc1nccs1 | 4 | / | 1 | -0.1 | -2%
O=C1CN(C(=O)CSc2nc3cc(Cl)ccc3c(=O)n2Cc2ccccc2)c2ccccc2N1 | 0 | -16 | 16 | 8.6 | 5%
O=C(CSc1ccccn1)N1CCc2ccccc21 | 10 | / | 8 | -2.0 | 4%
Cn1c(SCc2ccc(F)cc2)nnc1-c1cnccn1 | / | / | 6 | -1.4 | -1%
Cn1c2ccccc2c2cc(/C=N/NC(=O)c3ccc(N)cc3)ccc21 | / | / | 28 | 0.5 | /
NC(=S)N/N=C/c1ccc2cccc(OCc3ccccc3)c2n1 | / | / | 89 | 7.4 | /
C=CCn1c(=O)c2ccccc2n2c(Sc3nnnn3-c3ccccc3)nnc12 | -4 | -23 | -1 | / | -8%
O=C(O)c1ccc2c(c1)-c1cc(C(=O)O)ccc1S2(=O)=O | / | / | -8 | 4.5 | /
CCC(C)[C@H](NC(=O)N1CC(=O)Nc2ccccc21)C(=O)N1CCC[C@H]1C(=O)O (stereo partly specified) | / | / | -6 | 4.0 | /
COc1ccc(C(=O)NC2CC(C)(C)Cc3c2cnn3-c2ccccc2)cc1OC (stereo unspecified) | / | / | 4 | -13 | /
COC(=O)c1[nH]c2ccc(Cl)cc2c1NC(=O)Oc1ccccc1 | 2 | 3 | 10 | -8.2 | -6%
CC(C)(C)CC(C)(C)NC(=O)c1ccc2snnc2c1 | / | / | -4 | 0.3 | 6%
O=C(O)C1CSCN1S(=O)(=O)c1cccc2nsnc12 (stereo unspecified) | 6 | / | -3 | -0.6 | -6%
SMILES | Arbovirus anti | YopH PTP inh | Mtb bLac sens | RecA splice inh | Mtb H37Rv | others
CCOc1ccc(CCNC(=O)CCCN2C(=O)c3ccccc3C2=O)cc1OCC | -1 | -34 | 10 | -0.3 | -7%
COc1ccc(S(=O)(=O)Cc2ccc(C(=O)NC3CCCC3)o2)cc1 | 7 | -47 | -7 | -0.7 | 0% | Arbovirus anti repeat=-2
COc1ccc(N(CC(=O)NC2CCCC2)C(=O)Cn2nnc(-c3ccc(F)cc3)n2)cc1OC | -1 | -4 | -11 | -0.4 | 1%
O=C(/C(=N\Nc1ccc(Br)cc1)Sc1nnnn1-c1ccccc1)c1ccccc1 | 11 | -16 | 16 | -0.9 | 8%
Cc1n[nH]c(C)c1S(=O)(=O)N1CCC(C(=O)N2CCn3c2nc2ccccc23)CC1 | 11 | -27 | -3 | -1.1 | -4%
CN1CCN(c2ccccc2NC(=S)NC(=O)c2cc3ccccc3o2)CC1 | / | / | -2 | -4.2 | /
COc1ccc(C(=O)C2CCCN(S(=O)(=O)C(C)C)C2)c(C)c1 (stereo unspecified) | 2 | / | -4 | 0.9 | -7%
O=C(O)Cc1nc2nc3c(c(=O)n2[nH]1)CCCC3 | -1 | -23 | 1 | -2.1 | -6%
N#Cc1nc(Cc2cccc3ccccc23)oc1N1CCCCC1 | 3 | -51 | -2 | -0.1 | -7%
Cc1ccc2occ(-c3nn[nH]n3)c(=O)c2c1 | 9 | 11 | 2 | -1.4 | -7%
CCN(CC)c1ccc(CNCCc2ccc(F)cc2)cc1 | -33 | / | 17 | -2.7 | -7%
O=c1[nH]c(N2CCc3ccccc3C2)nc2c1CCC2 | 2 | -5 | 3 | -1.1 | 0%
Cc1nn(C)c(Cl)c1CN1CCC(CO)(CCOc2ccccc2)CC1 | -6 | / | 0 | 1.2 | -1%
Cc1ccc(C(=O)NC2CCc3ccccc3C2=O)cc1 (stereo unspecified) | 1 | / | -2 | 2.0 | 4%
C=CCN(C(=O)CNC(=O)c1ccco1)C(C(=O)NC1CCCC1)c1ccc(OC)cc1 (stereo unspecified) | / | / | -3 | -4.3 | /
Cc1ccc(S(=O)(=O)N(Cc2ccccc2)c2ccccc2C(=O)Nc2ccccc2C(=O)NCc2ccco2)cc1 | -18 | -21 | 0 | 22 | 8%
COc1cc(C(=O)NC(C)c2cccc3ccccc23)cc(OC)c1OC (stereo unspecified) | / | / | -12 | -1.6 | /
O=C(NCCN1CCOCC1)/C(=C/c1ccco1)NC(=O)c1ccccc1 | / | / | -1 | -4.9 | /
CCOc1ncccc1C(=O)N1CCN(C(c2ccccc2)c2ccccc2)CC1 | -3 | / | 1 | 3.5 | -1%
O=C(O)/C=C1\NC(=O)c2ccccc21 | 3 | -31 | 0 | -2.3 | -9%
O=C(c1ccc(Cl)c(S(=O)(=O)Nc2ccc(F)cc2)c1)N1CCN(c2ccccn2)CC1 | -6 | -31 | 9 | -0.6 | 0%
Cc1ccc([N+](=O)[O-])cc1S(=O)(=O)Nc1ccc(C(=O)NCc2ccccn2)cc1 | / | / | 0 | -0.2 | /
C/C(=N\N=C1\NC(=O)C(CC(=O)Nc2ccc(C)c(Cl)c2)S1)C(C)C (stereo unspecified) | 16 | / | -1 | 2.6 | -2%
S=C(Nc1ccccc1)N1CCN(C/C=C/c2ccccc2)CC1 | 14 | / | -1 | 0.7 | -2%
CC(SC1=NCCN1S(=O)(=O)c1ccccc1)c1ccccc1 (stereo unspecified) | / | / | 1 | 7.2 | /

Brought forward from above: 2 compounds; new compounds follow.
SMILES | Arbovirus anti | YopH PTP inh | Mtb bLac sens | RecA splice inh | Mtb H37Rv | others
S=C(Nc1ccccc1)N1CCN(C/C=C/c2ccccc2)CC1 | 14 | / | -1 | 0.7 | -2%
CC(SC1=NCCN1S(=O)(=O)c1ccccc1)c1ccccc1 (stereo unspecified) | / | / | 1 | 7.2 | /
N#Cc1ccc(Oc2ccc(S(=O)(=O)N3CCCCC3)cn2)cc1 | / | / | -15 | -1.3 | /
CN1CCN(C(=O)CCN2C(=O)/C(=C/c3ccccc3Cl)SC2=S)CC1 | -3 | / | 0 | 6.0 | -6%
CC(C)N1C(=O)N(c2cccc(Cl)c2)C(C)(O)CC1(C)C (stereo unspecified) | / | / | 3 | -1.1 | /
Cc1ncc([N+](=O)[O-])n1Cc1ccc(Cl)cc1 | -29 | / | -13 | 0.2 | -3%
Cc1oc(C(=O)Nc2ccc(C(=O)O)cc2)cc1COc1ccccc1 | 13 | -18 | 5 | -1.0 | -4%
CCC(=O)N/N=C(\C)CC(=O)Nc1ccc(F)cc1 | -4 | / | 9 | 2.1 | 8%
Cn1cccc1-c1cc(C(=O)N/N=C/c2ccc([N+](=O)[O-])cc2)[nH]n1 | / | / | 8 | 2.5 | /
Cc1occc1C(=O)Nc1ccc2c(c1)OCO2 | -8 | -4 | 10 | 2.4 | 9%
O=C(O)Cn1cnc2scc(-c3ccccc3)c2c1=O | / | / | 4 | 0.5 | /
COc1ccc(CCN2C(=O)C3C4CC(C5C(C(=O)NN)=NOC45)C3C2=O)cc1OC (stereo unspecified) | -6 | -14 | -3 | -0.5 | -13%
CCOc1ccc(NC(=O)CSc2nnc(N)s2)c([N+](=O)[O-])c1 | -3 | / | -2 | -0.8 | -13%
Cc1ccccc1NS(=O)(=O)c1ccc(OCC(=O)NCC2CCCO2)cc1 (stereo unspecified) | / | / | -4 | 0.5 | /
Cc1cccc(-n2c(C)nc3cc(C(=O)NCc4ccc5c(c4)OCO5)ccc32)c1 | -23 | -17 | 3 | 4.4 | 4%
Cc1cc(C)nc(Nc2ncc(O)n2-c2ccc(C)c(Cl)c2)n1 | 1 | 6 | 52 | 1.1 | -2%
COc1ccc(NC(=O)CCCC(=O)O)cc1Cl | 2 | / | 2 | -3.9 | -5%
O=[N+]([O-])c1nn(-c2ccccc2)[n+]([O-])c1N1CCN(c2ccccc2)CC1 | -4 | / | -3 | -2.7 | -6%
OC(CNCCC1C=Nc2ccccc21)Cn1c2ccc(Cl)cc2c2cc(Cl)ccc21 (stereo unspecified) | -38 | -27 | 100 | 48* | 1.8µM*
O=C(OCC(=O)N1CCN(c2ccccc2)CC1)c1ccccn1 | -1 | -56 | -3 | / | -11%
CC(=O)c1cccc(NC(=O)N2CCCC2C(=O)Nc2c(C)cccc2C)c1 (stereo unspecified) | -4 | -40 | -6 | -2.7 | -5% | Arbovirus anti repeat=-3
COCCNC(=O)C1CCC(Cn2c(=S)[nH]c3ccccc3c2=O)CC1 (stereo unspecified) | 3 | -9 | -12 | 2.4 | -6%
Cc1ccc(S(=O)(=O)Nc2ccc(NC(=O)c3cccs3)cc2)cc1 | 2 | / | -3 | 3.2 | 0%
S=c1[nH]nc(-c2cccnc2)o1 | -2 | -44 | -6 | -1.9 | -5%
O=C(O)/C=C/C(=O)NCC1CCC(CNC(=O)/C=C/C(=O)O)CC1 (stereo unspecified) | / | / | -6 | -1.7 | 3%
C=CCn1c(CCCNC(=O)C(C)(C)C)nc2ccccc21 | 5 | -27 | -1 | -0.7 | 7% | Arbovirus anti repeat=-2
COc1ccccc1NC(=O)C(C)OC(=O)C1CCC(C(C)(C)C)CC1 (stereo unspecified) | / | / | -4 | 5.7 | /

Random excerpt: four entries already listed.
SMILES | Arbovirus anti | YopH PTP inh | Mtb bLac sens | RecA splice inh | Mtb H37Rv | others
CS(=O)(=O)N1CCN(c2c(Cl)cccc2[N+](=O)[O-])CC1 | 1 | -20 | -10 | -0.3 | -8%
CC(C)(C)CC(C)(C)NC(=O)c1ccc2snnc2c1 | / | / | -4 | 0.3 | 6%
C/C(=N\N=C1\NC(=O)C(CC(=O)Nc2ccc(C)c(Cl)c2)S1)C(C)C (stereo unspecified) | 16 | / | -1 | 2.6 | -2%
O=C(/C(=N\Nc1ccc(Br)cc1)Sc1nnnn1-c1ccccc1)c1ccccc1 | 11 | -16 | 16 | -0.9 | 8%

The main list resumes with the three entries that preceded the break.
SMILES | Arbovirus anti | YopH PTP inh | Mtb bLac sens | RecA splice inh | Mtb H37Rv | others
O=C(O)/C=C/C(=O)NCC1CCC(CNC(=O)/C=C/C(=O)O)CC1 (stereo unspecified) | / | / | -6 | -1.7 | 3%
C=CCn1c(CCCNC(=O)C(C)(C)C)nc2ccccc21 | 5 | -27 | -1 | -0.7 | 7% | Arbovirus anti repeat=-2
COc1ccccc1NC(=O)C(C)OC(=O)C1CCC(C(C)(C)C)CC1 (stereo unspecified) | / | / | -4 | 5.7 | /
CNC(=S)N(CCc1cccc(C)c1)Cc1cc2cc(OC)c(OC)cc2[nH]c1=O | -7 | -60 | 5 | -4.2 | 9%
Cc1ccc(C)c(C(=O)CCC(=O)N2CCN(c3ncccn3)CC2)c1 | / | / | ? | 0.9 | /
O=C(c1ccccc1)N1CCN(Cc2c[nH]c3ccccc23)CC1 | 0 | -16 | -15 | -1.1 | 5%
Cc1ccc(S(=O)(=O)N2CCN(c3cccc(C)c3)CC2)cc1 | / | / | 3 | -0.4 | /
O=C(Nc1ccccc1)N1CCSCC1 | 1 | -36 | -1 | -1.5 | -2%
CCOc1ccc(CCNC(=O)c2cc3sc(Cl)cc3n2C)cc1OCC | 0 | -23 | -7 | -1.5 | 0%
Cc1ccc(C)c(NS(=O)(=O)c2cc(Br)cnc2N)c1 | 8 | -13 | 4 | -4.3 | 1%

Screening results as filed in PubChem BioAssay.
